T cruzi inh: T. cruzi replication inhibition. 300,000 compounds, 1.4% hits. T. cruzi beta-gal in NIH3T3, luminescence, 90 h. inhibition, % (no concentration beside the values);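 active = mean inhibition across valid replicates above about 55%, limit read from the data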;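 also: signal also drops with host cell toxicity which is not excluded here; 0% = plate median of DMSO wells and 100% = zero luminescence signal; higher percent means less beta-gal luminescence so fewer parasites; stock transfer was 50 nL into about 50 µL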
Calb FLC: affects C. albicans growth with fluconazole. 300,000 compounds, 0.57% hits. C. albicans CaCi-2 (fluconazole-resistant clinical isolate) + fluconazole, Alamar Blue growth, 48 h. growth inhibition, % (no concentration beside the values). AID 1979;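 active = most replicates above 75%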;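 also: all wells also contain fluconazole at 8 µg/ml as a sub-toxic cotreatment; 0% = median of DMSO wells and 100% = median of geldanamycin control wells; wells of about 8 µL received 7.5 nL stock; the first replicate is given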
LANA-H2B inh: blocks KSHV LANA binding to histone H2A/H2B; inhibition, % (no concentration beside the values); 320,000 compounds, 0.6% hits; cell-free LANA-H2A/H2B peptide, fluorescence polarization; AID 2629; Q9QR71; in the data active = inhibition mostly above about 10%, no sharp cut-off; inactive = mostly below about 6.7%;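 also: stock transfer was 7.5 nL into about 10 µL; 0% = median of vehicle wells and 100% = median of positive control wells; one replicate is shown; the record names a cut of 25% in any replicate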
rRNA inh HTS: inhibits bacterial ribosomal RNA function over humanized ribosomes; E. coli WT GFP vs humanized-ribosome RFP mutants, fluorescence, 24 h; hits give low values; DMSO median 0, no signal -100; GFP signal change (wild-type ribosome), % (concentration not given with the values); 350,000 compounds, 1.6% hits; AID 720706;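 active = significant combined selectivity score with lowered wild-type GFP, culture density cut under 30%, mutant RFP and density less affected; inactive = any of these conditions unmet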; also: one replicate is shown; some compounds called inactive have numbers as strong as hits
A1 inh: inhibitors of the anti-apoptotic protein A1, read as caspase activation. MEF A1-2A-BIM cells, Caspase-Glo 3/7 luminescence, 3 h; percent of clofoctol response, vehicle zero. caspase activation, % (test concentration not listed). 330,000 compounds, 0.066% hits;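 active = over half of replicate activation scores above 10%, or exactly half above 10 with the replicate mean above 10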;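 also: wells of about 30 µL received 50 nL stock; many hits fall short of the cut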
ALR inh: inhibitors of human sulfhydryl oxidase ALR; P55789; purified ALR, DTT oxidation, H2O2 HRP-luminol luminescence; inhibition, % (test concentration not listed); 290,000 compounds, 3.8% hits; AID 485317;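 active = mean and each replicate at 75% or more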;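 also: stock transfer was 7.5 nL into about 7.5 µL; 0% = neutral wells and 100% = wells with inactivated enzyme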
Target sequence (P55789 whole entry, looked up): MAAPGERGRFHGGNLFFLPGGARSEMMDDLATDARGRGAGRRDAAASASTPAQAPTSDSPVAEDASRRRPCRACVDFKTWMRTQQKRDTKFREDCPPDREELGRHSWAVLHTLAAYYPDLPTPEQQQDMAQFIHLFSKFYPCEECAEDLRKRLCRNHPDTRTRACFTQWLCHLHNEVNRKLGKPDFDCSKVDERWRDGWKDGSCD
Beta cell apopt: blocks beta cell apoptosis. INS-1E cytokine-induced death, ATP luminescence, 48 h; percent of positive-control rescue, neutral wells zero. protection from apoptosis, % (concentration not given with the values). 300,000 compounds, 0.8% hits;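 active = all replicates at 75% or more, or half of them and the mean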;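 also: 0% = cytokine-treated negative control wells and 100% = positive control rescue; higher means more ATP so stronger rescue from cytokine killing; wells of about 40 µL received 100 nL stock; the first replicate is given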
Beta2AR agonist: human beta-2 adrenergic receptor agonism by FAP. P07550. Am2.2-beta2AR cells, FAP receptor internalization, flow cytometry; reference of the scale not given here. response, % (no concentration beside the values). 340,000 compounds, 0.43% hits. AID 504454;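 active = response above a set limit, near 3 SD of response in nonfluorescent compounds, cut at about 42% in these data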;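 also: stock transfer was 100 nL into about 11 µL; a reference agonist was the positive control; negative values mostly stem from fluorescent compounds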
Target sequence (P07550 whole entry, looked up): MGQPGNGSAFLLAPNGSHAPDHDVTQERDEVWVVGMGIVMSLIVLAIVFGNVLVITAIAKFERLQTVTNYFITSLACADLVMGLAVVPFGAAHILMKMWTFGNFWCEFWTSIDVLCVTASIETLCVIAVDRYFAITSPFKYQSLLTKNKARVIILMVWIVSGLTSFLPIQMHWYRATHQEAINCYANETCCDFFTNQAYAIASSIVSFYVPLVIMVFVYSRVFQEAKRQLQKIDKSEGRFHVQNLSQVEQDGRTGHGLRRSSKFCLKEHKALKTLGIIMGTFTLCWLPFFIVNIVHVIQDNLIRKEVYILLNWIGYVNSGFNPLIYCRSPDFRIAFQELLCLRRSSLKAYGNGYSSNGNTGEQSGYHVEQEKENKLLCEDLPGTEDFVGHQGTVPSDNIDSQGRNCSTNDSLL
rRNA inh HTS OD600: recorded beside rRNA inh HTS, whose call it bears; OD600 change, %; measured here: OD600 growth;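 optical density of the mix in the first replicate; 0 = DMSO median and -100 = no signal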
rRNA inh HTS RFP: further read-out of rRNA inh HTS, marked with its call; RFP signal change, %; measured here: RFP humanized mutant strains;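 first replicate; 0 = DMSO median and -100 = no signal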
* hit, by the source's call; i = inactive; x = no result given. Some of the compounds tested; count on the stated rates, not on these rows.

SMILES	T cruzi inh	Calb FLC	LANA-H2B inh	rRNA inh HTS	rRNA inh HTS OD600	rRNA inh HTS RFP	A1 inh	ALR inh	Beta cell apopt	Beta2AR agonist
COc1cc(/C=C/C(=O)OCC(=O)N2CCCc3ccccc32)ccc1OCC#N	x	x	-15	-24*	-12*	4.8*	0.0	-2	7	0
N#Cc1c(NC(=O)CSc2nnc(-c3ccccc3)o2)sc2c1CCCC2	-2	-10	0.6	-30	-35	-8.5	0.7	5	5	7
CSc1ccccc1OCc1cc(C(=O)NC(C)Cc2cccc(C)n2)no1 (stereo unspecified)	9	4	-1.5	-36	-46	-7.8	-0.8	-11	1	3
Cc1cccc(NC(=O)CSc2nccn2Cc2ccco2)c1C	2	0	-0.9	3	4	2.2	-0.7	66	-3	16
O=C(Nc1ccc(Cl)cc1)C1CCC(=O)N1Cc1ccccc1Cl (stereo unspecified)	-3	-6	-4.1	x	x	x	0.4	2	x	0
O=C(Cc1cccs1)NCCn1ccc2ccccc21	8	-3	-0.4	4	8	18	0.1	-17	0	10
CCOc1cc(N2CCOCC2)c(OCC)cc1NC(=O)COC(=O)C1CCCN1S(=O)(=O)c1ccccc1F (stereo unspecified)	x	x	-1.4	1	-18	3.4	-0.2	10	-11	3
Cn1c(=O)c2c(ncn2CC(=O)Nc2ccc(Cl)cc2Cl)n(C)c1=O	-1	-4	1.8	x	x	x	-1.0	-1	-7	3
COCCn1c(SCC(=O)c2ccc3c(c2)OCCO3)nnc1-c1ccoc1C	49	-12	i	x	x	x	1.4	5	x	4
O=C(NCc1cccs1)C1CCN(S(=O)(=O)c2cccc3nsnc23)CC1	-3	-25	-3.5	x	x	x	-0.2	-18	1	1
CCOC(=O)c1nc(C)[nH]c1C(=O)OCC	-20	-13	-6.9	x	x	x	0.0	-7	x	8
COc1ccccc1NS(=O)(=O)c1ccc(C)c(C(=O)NCCCN2CCCC2=O)c1	-1	-1	0.4	12	-1	-4.4	1.0	-3	x	-9
O=C(Nc1ccc(-n2cnnn2)cc1)C1CCCN1C(=O)NC1CCCCC1 (stereo unspecified)	-8	-11	-3.4	x	x	x	1.2	x	-6	-1
O=S(=O)(c1cc(Br)ccc1Br)N1CCCCCC1	9	-10	0.3	-28	-38	-7.8	0.4	-11	x	-22
CC(/C=C/c1ccccc1)=N/NC(=O)c1cccc(Br)c1	2	-19	4.0	x	x	x	-0.6	1	15	7
COC(=O)C1=C(C)NC(=O)NC1c1ccc2ccccc2c1 (stereo unspecified)	-2	-1	0.7	4	2	-1.9	-0.5	-6	-1	1
O=c1c2ccccc2nnn1CSc1ccc2c(c1)OCCO2	-8	3	-3.6	x	x	x	-4.3	34	0	-18
O=C(NCC(=O)N1CCN(c2ccc(C(F)(F)F)cn2)CC1)c1ccc(Br)o1	x	x	2.8	0	4	-2.6	-0.4	x	34	-5
Cc1ccc(-c2nnc(NCc3nc4ccccc4[nH]3)c3ccccc23)cc1S(=O)(=O)N(C)C	13	-6	0.4	0	-6	-4.8	1.2	-2	28	25
COC(=O)c1cnc2c(c1C(=O)OC)c(=O)n(C)c(=O)n2C	1	5	-0.3	-2	-2	-3.9	0.3	-6	-10	-3
CC1CC(C)CN(CC(=O)N2CCCc3c2c(=O)oc2ccc(OCc4ccccc4)cc32)C1 (stereo unspecified)	30	68	2.6	x	x	x	0.1	-32	-14	11
CC(=O)NS(=O)(=O)c1ccc(NC(=O)CC23CC4CC(CC(Br)(C4)C2)C3)cc1	-6	-10	-6.2	-1	8	-2.3	-0.2	-1	x	-3
COc1ccc(-c2ccnc3[nH]n(-c4ccccc4)c(=O)c23)cc1	-3	16	-4.6	1	4	4.7	0.6	-5	-1	-1
c1ccc(Cn2cc(CN3CCCCO3)c(-c3ccc4c(c3)OCO4)n2)cc1	19	31	4.3	-23	-32	-6.2	1.0	-1	3	3
COc1cc(/C=C2\SC(=Nc3ccccc3)NC2=O)cc(Cl)c1O	12	69	-1.2	-4	-19	1.4	0.9	56	x	-6

More compounds
SMILES	T cruzi inh	Calb FLC	LANA-H2B inh	rRNA inh HTS	rRNA inh HTS OD600	rRNA inh HTS RFP	A1 inh	ALR inh	Beta cell apopt	Beta2AR agonist
Nc1nnc(SCc2cn3cc(Cl)ccc3n2)s1	-26	11	2.9	5	0	-0.2	-0.4	-2	-8	1
CN(CC(=O)Nc1ccc(F)cc1)C(=O)CN1C(=O)c2cccc([N+](=O)[O-])c2C1=O	x	x	5.1	8	14	-1.2	0.4	-16	4	4
COc1ccc(Cl)cc1NC(=O)CN1c2ccccc2CC1C (stereo unspecified)	14	-18	0.3	15	7	5.9	-1.7	-4	6	15
Cc1nc(SCc2cccc(F)c2)[nH]c(=O)c1C#N	1	1	-3.0	x	x	x	-1.0	84*	-3	6
CC(=O)Nc1ccc(S(=O)(=O)NNC(=O)NC23CC4CC(CC(C4)C2)C3)cc1	-26	5	-5.8	5	-4	1.7	0.6	17	0	3
COc1cc(/C=C2\CCOC2=O)cc(OC)c1OC	-8	6	-1.0	12	14	-0.6	0.8	1	-8	11
Cc1cccc(OCC(O)Cn2c(NCCCOC(C)C)nc3c2c(=O)[nH]c(=O)n3C)c1 (stereo unspecified)	-2	-3	-8.1	x	x	x	-1.6	x	2	5
Cc1ccc(S(=O)(=O)N(C)C)cc1NC(=O)COC(=O)CCC(=O)c1ccc(F)cc1	-13	-12	0.1	-3	-5	-3.6	-0.1	x	-5	8
COc1cnn(-c2ccc(C)cc2)c(=O)c1SCc1ccccc1	-6	-3	3.8	x	x	x	0.1	-7	-2	-9
CC(C)NC(=S)Nc1ccc(S(=O)(=O)Nc2ncccn2)cc1	9	-2	-0.8	1	12	-1.0	2.1	3	1	-1
Nc1c(C(=O)OCC(=O)Nc2cccc([N+](=O)[O-])c2)[nH]c(=O)[nH]c1=O	x	x	8.0	4	8	-2.7	-0.2	x	2	-6
Cc1nn2c3ccccc3n(CC(=O)c3cccs3)c2nc1=O	2	-9	2.1	8	14	-0.2	0.1	0	-7	-29
COc1cc(CN2CCN(c3cccc(Cl)c3)CC2)cc(OC)c1OC	-17	-4	5.1	x	x	x	0.4	0	2	5
COc1ccc(OC2C(=O)N(Cc3ccc4c(c3)OCO4)C2c2sccc2C)cc1 (stereo unspecified)	40	93*	-0.8	-22*	2.5*	1.0*	-0.3	0	10	9
CC(Sc1ncnc2sccc12)C(=O)Nc1ccc(C(N)=O)cc1 (stereo unspecified)	-9	-3	-7.4	12	8	-3.3	0.7	-11	2	-7
CCOc1ccccc1NC(=O)C(=O)NCCC1=CCCCC1	23	-32	4.4	-4	11	-3.9	-0.7	9	3	6
Cc1ccc(/C=N/NC(=O)c2nnn(-c3nonc3N)c2CN(C)C)s1	-1	25	-2.3	-1	-1	-1.3	0.8	4	5	0
COc1ccc(-c2nnn(Cc3ccccc3)n2)cc1OC	13	2	6.4	-19	-24	-6.8	-0.6	2	-9	-3
CCOC(=O)c1c(C)[nH]c(C)c1S(=O)(=O)N(C)CC(=O)Nc1ccccc1C	-13	15	1.4	-2	5	0.1	-0.7	-4	-7	4
CNC(=O)COC(=O)c1cc(F)c(F)cc1Cl	-15	-3	20*	x	x	x	-1.8	-1	-3	3
COc1ccc(C(=O)Nn2c(CC(C)C)nc3cc(OC)c(OC)cc3c2=O)c(OC)c1	7	0	-6.3	7	7	7.0	0.7	-5	0	-12
COc1ccc(-c2c(C#Cc3ccsc3)c3cc(-c4ccc5c(c4)OCCO5)ccc3n2C)cc1	x	x	3.7	2	-2	1.6	-0.2	0	3	-4
Cc1ccc(S(=O)(=O)N2CCC(=O)N(CCO)CC2)cc1	-15	-7	-6.7	3	4	-1.3	-0.5	-4	-7	-2
COc1ccc(-c2nc3ccc(N4CCN(C)CC4)cc3c(=O)[nH]2)cc1	-12	14	-1.2	3	8	0.4	-0.3	2	5	-15
Cc1nccn1CCCNCc1c(C(=O)N2CCCCCCC2)nc2ccc(Cl)cn12	12	21	5.1	x	x	x	0.0	-1	-11	-4

Look-ups from the entries so far:
For Beta cell apopt, CCOC(=O)c1c(C)[nH]c(C)c1S(=O)(=O)N(C)CC(=O)Nc1ccccc1C is entered as -7
For Calb FLC, CC(Sc1ncnc2sccc12)C(=O)Nc1ccc(C(N)=O)cc1 (stereo unspecified) is entered as -3

Later entries:
SMILES	T cruzi inh	Calb FLC	LANA-H2B inh	rRNA inh HTS	rRNA inh HTS OD600	rRNA inh HTS RFP	A1 inh	ALR inh	Beta cell apopt	Beta2AR agonist
CCOc1cc(/C=C\c2nc(O)c([N+](=O)[O-])c(=O)[nH]2)ccc1OC(C)C	4	5	2.0	5	7	-2.9	1.8	7	-2	-9
Cc1sc(NC(=O)C2=COCCO2)nc1-c1ccc(Br)cc1	-16	-4	0.4	-4	-2	-4.5	2.0	7	7	-2
COc1ccc(-c2sc3cc4c(cc3c2-c2ccc3c(c2)OCCO3)OCO4)cc1	x	x	-0.6	6	14	2.8	1.1	-4	-5	-3
COCCN(C(=S)Nc1c(C)cccc1C)C(C)c1cccnc1 (stereo unspecified)	-2	15	0.5	-1	-2	2.8	0.1	19	-2	0
CCOc1ccccc1/C=N/Nc1nc2c(N)ncnc2n1[C@H]1O[C@@H](CO)[C@H](O)[C@@H]1O	1	3	-0.3	0	2	-0.4	1.1	35	7	-8
CCOC(=O)C1CCN(C(=O)C(C)Oc2ccc(Br)cc2)CC1 (stereo unspecified)	7	-2	-6.4	-11	-3	3.7	0.6	-4	0	-4
Nc1c(/C=C2\C=Nc3ccccc32)c(=O)nc2sc(CC(=O)N3CCOCC3)nn12	-6	11	4.1	1	-13	19	-0.4	x	-4	1
Cc1ccc(S(=O)(=O)NCCOC(=O)Nc2sc(=S)n(C)c2C)cc1	-4	-4	2.6	8	-2	3.3	0.7	51	4	-4
CS(=O)(=O)c1ccc(Cl)c(NC(=O)C2CC(=O)N(Cc3ccco3)C2)c1 (stereo unspecified)	0	-1	2.3	-1	10	-0.8	0.2	-21	4	-5
CCOCCCNC(=O)C1c2ccccc2Oc2ccccc21	-12	6	-1.7	10	5	-3.0	0.0	-6	-1	1
COC(=O)C1=C(C)Nc2nc3ccccc3n2C1c1cc(OC)c(OC)c(OC)c1 (stereo unspecified)	12	3	-2.9	13	6	-0.8	0.8	-9	0	-15
COC(=O)c1cc(COc2ccc3oc(C)c(C(=O)OC(C)C)c3c2)c(C)o1	2	-3	1.8	x	x	x	0.6	-2	-2	6
N#CCSc1nnc(-c2cnccn2)n1Cc1ccccc1	2	3	1.4	x	x	x	-0.1	-14	-6	0
CCCC[C@H]1COCCS(=O)(=O)N1Cc1cccc(Cl)c1	17	-3	2.1	-13	-6	2.2	0.3	1	-3	-7
Cc1ccc(C(CC(=O)c2ccco2)SCCO)cc1 (stereo unspecified)	-13	0	-3.2	x	x	x	-4.8	2	x	9
COc1ccc(C2NC(=S)NC(C)=C2C(=O)Nc2ccccn2)cc1OC (stereo unspecified)	2	-25	-6.2	x	x	x	-0.3	x	-6	-2
Cc1ccc(S(=O)(=O)N(C)Cc2ccc(C(=O)NN=C3C4CC5CC(C4)CC3C5)cc2)cc1	6	-24	12	5	7	4.7	0.7	-6	0	-9
CCC(CC)C(=O)Nc1cc(C)c2c(=O)oc3ccccc3c2n1	39	-6	0.6	4	5	-1.3	0.1	3	12	0

From PubChem BioAssay
